Vaccinia mCherry = vaccinia inhibition (mCherry reporter) | Vaccinia virus mCherry reporter infection, fluorescence; about a quarter of the inactives have no number | Potency, µM (titrated, usually from 36.5 µM), for the others: top-dose activity change, negative = inhibition, hits mostly inhibitors | 310,000 tested, 0.63% active | AID 720579; active = well fitted inhibition curve with a large enough effect; inconclusive = small, poorly fitted or top-dose-only effect; inactive = no such curve, though single readings can be large or run the other way; tested in A549 cells; note: nearly all actives have a fitted effect of over 35% in size; inactives centre near -10
VACV Venus inh = inhibitors of vaccinia virus (Venus reporter); Potency, µM (top dose mostly 36.5 µM), without a hit: at the top dose activity change, negative = inhibition, actives largely listed as inhibitors; Vaccinia virus Venus reporter expression, fluorescence; 330,000 tested, 0.46% active; active means well fitted inhibition curve with a large enough effect; inconclusive means small, poorly fitted or top-dose-only effect; inactive means no such curve, though single readings can be large or run the other way; tested in A549 cells; note: nearly all actives have a fitted effect of over 30% in size; inactives centre near -10
Active calls of the source: *; i = inactive; ? = inconclusive; . = no result given; & = joins results of further samples; [ ] = another dose, or the depositor's remark. % is set by controls: 0 for no effect and ±100 for the full control effect; potency is the fitted concentration of half-maximal effect. An unsorted share of the library; about 0.82% have a hit in one of these screens.

The first three compounds (preview)
SMILES | Vaccinia mCherry | VACV Venus inh
O=C(OC1CCCCC1=O)c1cccc(S(=O)(=O)NCc2ccccc2)c1 (configuration not stated) | . | -21.9%
COc1ccccc1-n1c(=O)[nH]c2c(C(N)=O)nc(-c3cccnc3)nc21 | i | -21.2%
O=S(=O)(c1ccccc1)n1ccc2cccnc21 | . | -8.2%

The whole of this part, from the start:
SMILES | Vaccinia mCherry | VACV Venus inh
O=C(OC1CCCCC1=O)c1cccc(S(=O)(=O)NCc2ccccc2)c1 (configuration not stated) | . | -21.9%
COc1ccccc1-n1c(=O)[nH]c2c(C(N)=O)nc(-c3cccnc3)nc21 | i | -21.2%
O=S(=O)(c1ccccc1)n1ccc2cccnc21 | . | -8.2%
COC(=O)c1ccccc1NC(=O)c1cc2cc(C)ccc2n1C | -21.6% | -16.6%
COc1ccc(S(=O)(=O)N2CCN(Cc3cc4c(cc3Br)OCCO4)CC2)cc1 | i | -12.0%
CCOC(=O)c1ccccc1NC(=O)CSc1nncn1C | 2.5% | 1.6%
Cc1cc(C)cc(NC(=O)CN(C)S(=O)(=O)c2ccc3c(c2)CCC(=O)N3)c1 | -15.1% | 2.1%
CC(=O)C1=C(O)C(=O)N(c2ccccn2)C1c1ccc(C)cc1 (configuration not stated) | -12.5% | -11.7%
Cc1cccc(NC(=O)CN(C)C(=O)/C=C/c2ccccc2)c1C | -17.7% | -22.4%
Cn1nnnc1SCCCNCc1ccccc1OCc1ccc(Cl)cc1 | -3.9%[7.34 µM] | -9.4%[7.34 µM]
Cc1ccc(-c2ccc(=O)n(CC(=O)NCCc3ccccc3)n2)cc1 | -11.4% | -12.6%
COC(=O)C1=C(C)N(Cc2ccccc2)C(=O)N[C@H]1c1cccc(F)c1 | i | -10.5%
CCOc1ccc(Cl)cc1CNCCCSc1nnnn1C | -8.4% | -2.2%
Cc1ccc2nsnc2c1S(=O)(=O)NC1CC1 | i | -5.5%
CC(C)(C)c1ccc(C(=O)Nc2ccc(C(=O)N3CCOCC3)cc2)cc1 | -2.3% | -14.1%

Some values from the entries so far:
In VACV Venus inh, COC(=O)C1=C(C)N(Cc2ccccc2)C(=O)N[C@H]1c1cccc(F)c1 has -10.5%
In VACV Venus inh, O=C(OC1CCCCC1=O)c1cccc(S(=O)(=O)NCc2ccccc2)c1 (configuration not stated) has -21.9%
In VACV Venus inh, COc1ccccc1-n1c(=O)[nH]c2c(C(N)=O)nc(-c3cccnc3)nc21 has -21.2%

Continued:
SMILES | Vaccinia mCherry | VACV Venus inh
CCOc1ccc(C(C)C)cc1S(=O)(=O)n1ccnc1C | -2.5% | -12.4%
Cc1cccc2c1CCCC2=O | -10.6% | -16.4%
COc1cccc(NC(=O)/C=C/c2ccccc2[N+](=O)[O-])c1 | -20.6% | -27.5%
Cc1cnc(C)c(-c2cccc3c2OC(CNC(=O)CN2C(=O)c4ccccc4C2=O)C3)n1 (configuration not stated) | i | -14.1%
COC(=O)C1CCN(Cc2ccc3c(c2)CN(C(=O)c2cc(C)oc2C)CCO3)CC1 | -5.7% | 0.6%
CCC1CCCCN1Cc1nc2c(c(=O)n(C)c(=O)n2C)n1Cc1c(F)cccc1Cl (configuration not stated) | 6.5% | -10.2%
CC(C)(C)CC(C)(C)SSc1n[nH]c(=S)s1 | -20.6% | 7.3%
Cc1ccc(SCC(=O)OCC(=O)N(CC(C)C)c2c(N)n(Cc3ccccc3)c(=O)[nH]c2=O)c(C)c1 | ? | ?
N#CCc1ccc(C(=O)c2ccccc2)s1 | . | -10.8%
COc1ccc(C)cc1S(=O)(=O)N1CCN(c2ccccc2)CC1 | i | -15.7%
O=C1N=C(N2CCN(c3ccccc3)CC2)SC1Cc1ccccc1 (configuration not stated) | -18.4% | -12.8%
N[C@H]1CONC1=O | i | -19.7%
O=C(COC(=O)c1ccc(NS(=O)(=O)c2cccs2)cc1)Nc1nc2c(F)c(F)c(F)cc2s1 | i | 1.9%
CC(C)C(=O)Nc1ccc(NC(=O)c2cccs2)cn1 | i | -8.2%
CCN(CC)S(=O)(=O)c1ccc2[nH]cc(C(=O)NCCC3=CCCCC3)c(=O)c2c1 | . | ?
CSc1nc(NC(C)=O)nc(C)c1Cl | i | -12.7%
CC1(C)CC(=O)C2=C(C1)N(c1ccccc1)C(=O)C(C(=O)OCc1ccccc1)C2 (configuration not stated) | -29.1% | 5.6%
COC(=O)CC1C(=O)NCCN1C(=O)CSc1nc2ccc([N+](=O)[O-])cc2s1 (configuration not stated) | -21.6% | -13.9%
CC(C)C(NC(=O)c1ccccc1F)C(=O)NCC(c1ccco1)N1CCCCC1 (configuration not stated) | i | -0.4%
CCOc1ccc(-c2nonc2NC(=O)COc2ccc(C)c(C)c2)cc1OCC | i | 7.7%
Cc1c(Oc2ccc(C(F)(F)F)cc2[N+](=O)[O-])ccc2c3c(c(=O)oc12)CCC3 | -2.9% | -6.4%
O=C(NCc1ccc(Cl)s1)c1cc(COc2c(F)cccc2F)on1 | -12.5% | -7.8%
Cc1ccc2[nH]c(=O)c(-c3noc(C(C)C)n3)cc2c1 | -5.8% | -14.0%
O=C(/C=C/Nc1ccc([N+](=O)[O-])cc1Br)c1cccc2ccccc12 | -20.4% | -2.9%
CC1(C)CC(=O)C2=C(C1)NC(SCC(=O)Nc1ccccc1)=C(C#N)C21CCCCC1 | . | 10.0%
Cc1ccc(-c2csc3nc(C)n(-n4cccc4)c(=O)c23)o1 | . | -7.5%
CCOc1ccc(OCCOCCNCCOC)cc1 | ? | -26.8%
O=c1c2cn[nH]c2nc(SCc2ccc3c(c2)OCCO3)n1-c1ccccc1 | -26.4% | ?
CCOC(=O)c1c(C)[nH]c(C(=O)C(Cc2ccccc2)N(C)C)c1C (configuration not stated) | 1.3% | -14.9%
Nc1ccc2nc(NC(=O)C3CCCCC3)sc2c1 | -23.6% | 2.4%
NNC(=O)c1cc2c(s1)-c1cc(Cl)ccc1SC2 | -7.9%[7.34 µM] | 5.5%[7.34 µM]
O=P(OCC(F)(F)C(F)F)(N1CCOCC1)N1CCOCC1 | . | -6.5%
Cc1nnc(SCC(=O)Nc2cc(C(F)(F)F)ccc2N2CCOCC2)o1 | -11.3% | -9.9%
O=C(NNC(=S)NC1CC2C=CC1C2)c1ccncc1 (configuration not stated) | -1.2%[7.34 µM] | -1.8%[7.34 µM]
CCOc1cc(C)c(Cl)cc1S(=O)(=O)NCc1ccc2c(c1)OCO2 | . | ?
CCN(c1ccc(NC(=O)COC(=O)CCc2nc3ccccc3n2-c2ccccc2)cc1)C(C)C | i | -12.8%
CN(CC(=O)Nc1ccccc1Br)c1ncnc2sccc12 | -13.4% | -10.3%
CCOc1ccccc1NC(=O)CCCc1nc(-c2ccccc2Cl)no1 | -14.9% | -15.9%
COc1ccc(C(C(=O)NC2CCCC2)N(Cc2ccc(F)cc2)C(=O)c2ccn[nH]2)cc1OC (configuration not stated) | -19.2% | -3.6%
O=C(Nc1cccc2ccccc12)c1csc([C@@H]2O[C@H](CO)[C@H](O)[C@H](O)[C@H]2O)n1 | i | 8.0%
Cc1nc2cc(NC(=O)N3CCN(c4ccccn4)CC3)ccc2o1 | i | -7.3%
COc1ccccc1NC(=O)Cn1c(C)nc2c(sc(=S)n2Cc2ccco2)c1=O | -16.4%[7.34 µM] | -5.5%[7.34 µM]
COc1ccccc1CNC(=O)Cc1ccc(OC)c(OC)c1 | i | -7.8%
CC1(C(=O)NS(=O)(=O)c2ccc(F)cc2F)CCN1C(=O)CC1CCCC1 (configuration not stated) | 4.2% | 1.2%
CCN(CC)CCn1c(OC)cc(=O)[nH]c1=O | -11.3% | -0.9%

Quoted at random: 2 compounds from above.
SMILES | Vaccinia mCherry | VACV Venus inh
CCN(CC)CCn1c(OC)cc(=O)[nH]c1=O | -11.3% | -0.9%
Cc1nnc(SCC(=O)Nc2cc(C(F)(F)F)ccc2N2CCOCC2)o1 | -11.3% | -9.9%

The listing continues.
SMILES | Vaccinia mCherry | VACV Venus inh
CCN(C(=O)c1c(C)oc2ncn(CC(C)C)c(=O)c12)c1cccc(Cl)c1 | -11.9% | -3.6%
COc1ccccc1C(CNC(=O)c1ccc(S(=O)(=O)NCc2ccco2)cc1)N(C)C (configuration not stated) | -9.6% | -7.6%
CN(C)CCCNS(=O)(=O)c1ccc(NC2CCCCCC2)c([N+](=O)[O-])c1 | 8.91µM* | -19.5%
CCOc1cccc2cc(-c3nnc(Nc4ccc(F)c(Cl)c4)s3)c(=O)oc12 | -9.1% | -10.7%
COc1ccccc1OCC(=O)N1CC2(C)CC1CC(C)(C)C2 (configuration not stated) | -10.8% | -5.9%
COc1cc(/C=C/C(C)=NNc2ccccc2)ccc1O | 3.55µM* | -20.8%
O=C(CN(Cc1ccc(F)cc1)C(=O)CCC(=O)Nc1ccccn1)NCc1ccc(F)cc1 | -19.1% | -17.0%
COc1ccc(NC(=O)C(c2ccccc2)c2ccccc2)cn1 | i | -14.0%
COC(=O)c1ccc(Nc2nc(-c3ccc(C)cc3)nc3ccccc23)cc1 | -19.4% | -17.7%
Cc1cc(C)c2c(c1)[C@@H]1C=CC[C@@H]1[C@H](c1ccc(S(=O)(=O)N3CCOCC3)cc1)N2 | i | -5.9%
CCc1ccccc1NC(=O)c1cc(-c2cccc(O)c2)on1 | i | -10.1%
Cc1ccccc1C(C)(O)c1cnc(C)n1Cc1ccccc1 (configuration not stated) | i | -16.2%
COc1cccc(C(O)c2nc(-c3cccc4cccnc34)cs2)c1 (configuration not stated) | ? | -18.4%
O=C(Nc1ccncc1)c1cc(-c2cccc(Br)c2)nc2ccccc12 | ? | ?
CCN1C(=O)/C(=C/c2ccc(C)o2)N(C)C1=S | -17.1% | -6.6%
COc1ccccc1C(=O)NCC(=O)OCC(=O)c1cccc2ccccc12 | 35.0%[activator] | -8.1%&-9.1%
CCOc1ccc(C(=O)CSc2nc3cc(C(=O)NC4CCCC4)ccc3c(=O)n2CC2CCCO2)cc1 (configuration not stated) | -7.4% | -0.9%
Cc1ccc(/C=C2\SC(=S)N(CCCC(=O)Nc3cccnc3)C2=O)cc1 | -17.2% | -2.9%
CCCn1c(SCC(=O)Nc2ccc(OCC)cc2)nnc1C(C)C | -8.8% | -7.4%
CC(/C=N/NC(=O)c1cc(-c2ccc(C)s2)[nH]n1)=C\c1ccccc1 | -21.8% | ?
C[C@@H]1CN([C@H](C)CO)C(=O)c2c(c3ccccc3n2C)-c2ccccc2CO[C@H]1CN(C)Cc1ccc2c(c1)OCCN2C | i | -6.4%
O=C(CNC(=S)N(Cc1ccccc1)Cc1cccnc1)NCCc1ccccc1 | -27.7% | -14.1%
CC(C)C(=O)c1cn(CC(=O)NCc2ccco2)c2ccccc12 | -10.8% | -7.4%
COCCn1c(COc2cccc(OC)c2)nnc1SCC(=O)NC1CCCC1 | -3.8% | -6.4%
CC(=O)c1c(C)[nH]c(C(=O)CN2C(=O)NC(C)(C)C2=O)c1C | -8.6% | -1.0%
CCOc1ccc(NC(=O)[C@@H](c2ccccc2)N2Cc3ccccc3C2=O)cc1 | -13.1% | -11.6%
C[C@]12CC[C@@H](O)CC1=CCC1C2CC[C@@]2(C)C1CC[C@@H]2N (some centres not stated) | i | -8.6%
CCSc1nnc2c(n1)OC=Nc1ccc(Br)cc1-2 | . | -18.7%
Cc1nc(NC(C)C)c2oc3ccccc3c2n1 | . | -21.6%
COc1ccc(C(=O)Oc2cccnc2)cc1 | . | 1.8%
COc1cc(NC(=O)c2csc(-c3ccncc3)n2)cc(C(=O)Nc2cccc(C(F)(F)F)c2)c1 | -8.5%&-5.1% | -26.9%&-20.6%
CCOc1ccc(NC(=O)CCc2c(C)nc3c4c(C)cc(C)nc4nn3c2C)cc1 | -8.8% | -1.9%
COC(=O)C(C)Sc1n[nH]c(=S)s1 (configuration not stated) | . | -14.1%
CCCCn1c(N)c(N(CCOC)C(=O)c2ccc3c(c2)C(=O)N(c2cc(C)ccc2C)C3=O)c(=O)[nH]c1=O | i | -13.4%
COc1ccc2nc3ccccc3nc2c1NC(=O)c1ccc(Cl)cc1Cl | -10.4% | 7.5%
Cc1cc(Cl)c(S(=O)(=O)NCC2CCCO2)cc1OCC(N)=O (configuration not stated) | -19.3% | -7.8%
COC(=O)Nc1ccc(OCc2ccccc2)cc1 | -17.0% | -0.8%
CCC(=O)N1CCN(c2ccc(NC(=O)c3ccco3)cc2)CC1 | . | -14.2%
CCN(C(=O)COC(=O)CNS(=O)(=O)c1ccc(C)cc1)C1CCS(=O)(=O)C1 (configuration not stated) | i | -13.0%
O=c1c2cc(Cl)ccc2[nH]c(=S)n1Cc1cccs1 | i | -4.9%
COC(=O)c1cccc(-n2cnnn2)c1 | -11.5% | -7.2%
CC(C)c1ccc(NC(=O)c2ccc(F)c(S(=O)(=O)N3CCc4ccccc43)c2)cc1 | -3.4% | -26.0%
Cc1ccc(Cc2c(-c3ccc(Cl)cc3)nc3ccc(Cl)cn23)cc1 | -24.4% | -24.7%
Cc1cc(=O)[nH]c(N/N=C/c2ccccn2)n1 | ? | ?
CCc1ccc2oc(C(=O)Nc3nonc3CC)c(C)c2c1 | i[7.34 µM] | -5.0%[7.34 µM]
CCOc1ccc(S(=O)(=O)NC(Cc2cnc[nH]2)C(=O)O)cc1 (configuration not stated) | 1.6% | 2.1%

Record cards, as listed above.
Cc1cc(Cl)c(S(=O)(=O)NCC2CCCO2)cc1OCC(N)=O (configuration not stated) is listed as Vaccinia mCherry = -19.3%; VACV Venus inh = -7.8%
COc1ccc2nc3ccccc3nc2c1NC(=O)c1ccc(Cl)cc1Cl is listed as Vaccinia mCherry = -10.4%; VACV Venus inh = 7.5%

Source: PubChem BioAssay
